Compound activity (PubChem)
PKD1 kinase inh: blocks activity of human protein kinase D1; Q15139; PKD1 kinase fluorescence polarization assay; inhibition, %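 (about 10 µM by stock and volumes)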; 0.056% of 200,000 active; AID 797;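 active = inhibition of 50% or more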;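 also: controls were vehicle for no effect and a reference inhibitor for full effect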
RGS16-Gao HTS: modulates binding between human RGS16 and Galphao. O15492+P09471. bead-based flow cytometry RGS16-Galphao binding, fluorescence; actives lie on both sides. binding response (% of control), % at 10 µM. 0.38% of 220,000 active. AID 1441;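 active = below 25% or above 175%, edge rows of some plates excepted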;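 also: Galphao activated by GDP with aluminum fluoride before binding; 100% = wells without compound and 0% = beads without RGS; some results beyond the cut were filed as inactive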
Target sequence (O15492 whole entry, looked up): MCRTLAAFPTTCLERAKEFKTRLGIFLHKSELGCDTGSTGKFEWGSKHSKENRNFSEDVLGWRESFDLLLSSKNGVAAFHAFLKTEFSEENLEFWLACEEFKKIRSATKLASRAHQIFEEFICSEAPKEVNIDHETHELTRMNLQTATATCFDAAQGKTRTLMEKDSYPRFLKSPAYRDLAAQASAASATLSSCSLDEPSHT
Target sequence (P09471 whole entry, looked up): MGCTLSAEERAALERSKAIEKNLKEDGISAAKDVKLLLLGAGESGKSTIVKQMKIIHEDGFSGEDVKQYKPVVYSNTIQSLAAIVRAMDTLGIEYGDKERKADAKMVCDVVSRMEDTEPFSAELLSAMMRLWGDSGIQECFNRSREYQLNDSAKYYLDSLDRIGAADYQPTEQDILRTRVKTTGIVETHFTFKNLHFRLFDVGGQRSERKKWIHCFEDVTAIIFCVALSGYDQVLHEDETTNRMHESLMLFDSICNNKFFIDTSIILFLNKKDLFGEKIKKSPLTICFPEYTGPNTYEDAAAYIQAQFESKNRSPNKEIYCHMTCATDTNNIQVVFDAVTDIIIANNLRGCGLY
GALR2 ag: GALR2 (human) receptor agonism; GALR2-expressing cells, agonist activation read-out; activation, %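 (tested at 5 µM)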; 0.48% of 140,000 active; AID 803;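 active = above mean plus 3 SD of all compounds, about 5% in these data, not always enough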;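 also: 0% = vehicle buffer wells and 100% = reference agonist at full effect; tested in CHO reporter cells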
HSV replic up: increases HSV replication in cells. HSV replication augmentation in cells, fold increase. 0.005% of 220,000 active. maximum fold increase;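 active = peak rise of 1.5-fold or more in the series; tested in PC3 cells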;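 also: first round at 10 µM; read as green reporter fluorescence; hits show the peak of a series up to 25 µM; 1 = signal of infected wells without compound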
INS promoter inh: TRM-6 insulin promoter activity inhibition | TRM-6 cells (human fetal islet line), insulin promoter-eGFP reporter, imaging; reporter expression induced with tamoxifen | inhibition, % at 2 µM | 0.9% of 130,000 active | AID 1273;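 active = inhibition above the mean plus 3 SD, with well images judged a real hit on visual review, cut at about 60% in these data, passing the limit was not always enough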
INS promoter inh cell count: second read-out of INS promoter inh, no call of its own (marks repeat the call); normalized cell count, %; measured here: cell count, toxicity; reference of the scale not given here;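 cells exposed to compound for 48 h; stained nuclei by imaging scaled within each plate; lower means fewer cells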
HSV replic up primary fold: recorded beside HSV replic up, whose call it bears; fold increase; compound at 10 µM; measured here: primary screen fold increase 10 uM; tested in PC3 cells;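 GFP signal in the first replicate; 1 = infected wells without compound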
An asterisk follows results filed as active; i = inactive; · = not tested or not shown. Rows are unselected (roughly 1.2% active in at least one column).

| canonical_smiles | PKD1 kinase inh | RGS16-Gao HTS | GALR2 ag | HSV replic up | HSV replic up primary fold | INS promoter inh | INS promoter inh cell count |
| --- | --- | --- | --- | --- | --- | --- | --- |
| Brc1ccc(N=Nc2ccc3ccccc3n2)cc1 | · | 104 | · | i | 1.3 | · | · |
| Cc1nn(-c2ccccc2)c(C)c1/C=C1\C(=O)N(C)C(=S)N1C | -7 | 102 | · | i | 0.87 | 8 | 143 |
| COc1ccc(N2CCN(C(=O)CN3C(=O)c4ccccc4S3(=O)=O)CC2)cc1 | 2 | 105 | -2.8 | i | 0.99 | 0 | 183 |
| CC(CNS(=O)(=O)c1ccc(Br)cc1)CN(C)C (stereo not given) | · | 104 | · | i | 0.77 | · | · |
| COc1cccc(OC)c1C(=O)Nc1ccc(C)cc1C(=O)c1ccccc1 | -7 | 110 | 0.4 | i | 0.93 | · | · |
| CCOC(=O)c1c(CSc2ccccc2)oc2cc(Br)c(O)c(CN(C)C)c12 | · | 99 | · | i | 0.86 | · | · |
| COc1cccc(-c2nc(=S)c3c(n2CCCO)CCCC3)c1 | -7 | 103 | 1.2 | i | 0.98 | 13 | 65 |
| Cc1onc(-c2ccccc2Cl)c1C(=O)N(Cc1nc(-c2ccccc2)no1)C1CCCCC1 | -6 | 185 | -0.6 | i | 0.96 | 27 | 169 |
| O=C(COC(=O)c1cnccn1)Nc1cccc2ccccc12 | -6 | 113 | · | i | 1 | · | · |
| O=C1NCCCC1C(=O)N/N=C/c1cccc([N+](=O)[O-])c1 (stereo not given) | · | 93 | · | i | 1.2 | · | · |
| O=C(CCn1c(=S)oc2ccccc21)Nc1cccc(O)c1 | -8 | 12* | · | i | 1.1 | · | · |
| Cc1ccc(NC(=O)c2cc([N+](=O)[O-])ccc2NCc2cccnc2)cc1 | -10 | 99 | -2.3 | i | 0.8 | -31 | 163 |
| O=[N+]([O-])c1cccc(C(O)C23CN4CN(CN(C4)C2)C3)c1 (stereo not given) | · | 108 | · | i | 1.1 | · | · |
| CCc1ccc(NC(=O)c2noc(C(C)C)c2[N+](=O)[O-])cc1 | 1 | 100 | · | i | 1 | · | · |
| COC(=O)c1sccc1NC(=S)N1CCN(c2ccc(F)cc2)CC1 | -4 | 104 | -1.9 | i | 1 | -93 | 115 |
| Oc1oc(-c2ccc(Br)cc2)nc1/C=N/c1ccccn1 | 0 | 123 | · | i | 0.88 | 45 | 78 |
| COc1cc(/C=N/N=C2/NC(=O)C(c3ccccc3)S2)ccc1O (stereo not given) | 4 | 111 | -1.3 | · | · | 14 | 76 |
| CCCCC(=O)Nc1ccc(NC(=O)CC)cc1OC | 6 | 69 | 0.9 | i | 0.89 | 51 | 74 |
| COc1c(N2CCN(C(=S)Nc3ccccc3)C(C)C2)c(F)cc2c(=O)c(C(=O)O)cn(C3CC3)c12 (stereo not given) | 9 | 100 | -0.9 | i | 0.96 | -7 | 105 |
| COc1ccc2[nH]c(=O)c(CN(CC3CCCO3)C(=S)Nc3ccc(C)cc3)cc2c1 (stereo not given) | -4 | 104 | · | i | 0.77 | 4 | 79 |
| O=C(c1cc2ccccc2oc1=O)N1CCN(Cc2ccc3c(c2)OCO3)CC1 | -3 | 100 | -0.7 | i | 0.86 | · | · |
| Fc1cccc(F)c1-n1c(CN2CCOCC2)csc1=S | -6 | 108 | · | i | 1 | -27 | 147 |
| CC1CCN(S(=O)(=O)c2ccc3c(c2)oc(=O)n3CC(=O)N2c3ccccc3CC2C)CC1 (stereo not given) | 13 | 144 | -3.2 | · | · | · | · |
| CCOc1ccc(C2C3=C(CCCC3=O)OC(N)=C2[N+](=O)[O-])cc1 (stereo not given) | · | 106 | · | i | 0.81 | · | · |
| FC(F)(F)c1cccc(CON=C2CCN(c3ncc(C(F)(F)F)cc3Cl)CC2)c1 | -6 | 106 | -1.2 | i | 1.1 | -13 | 96 |
| CSCC(C)N1CCC(CO)(CCc2ccccc2)CC1 (stereo not given) | -11 | 104 | · | i | 1.1 | · | · |
| CNC(=O)c1cn(-c2ccc(Cl)cc2)c(=O)c2ccccc12 | -2 | 99 | · | i | 0.9 | · | · |
| COc1ccc(OCCSc2nnc(C(C)NC(=O)c3ccccc3F)n2C)cc1 (stereo not given) | 2 | 101 | · | i | 1 | · | · |
| Cn1c(NCc2cccc(Br)c2)nc2ccccc21 | -7 | 84 | -2.3 | i | 0.84 | · | · |
| COCCCn1c(Cc2csc(Nc3cccc(Cl)c3)n2)nnc1SCC(=O)OC | 2 | 107 | -0.3 | i | 0.98 | 15 | 94 |

(list continues)
| canonical_smiles | PKD1 kinase inh | RGS16-Gao HTS | GALR2 ag | HSV replic up | HSV replic up primary fold | INS promoter inh | INS promoter inh cell count |
| --- | --- | --- | --- | --- | --- | --- | --- |
| COCCNC(=O)COC(=O)c1nsc(Cl)c1Cl | 3 | 99 | -1.8 | i | 0.97 | -14 | 132 |
| CCOC(=O)c1ccc(S(=O)(=O)NNC(=O)c2cccc(N(C)C)c2)cc1 | -5 | 96 | · | i | 0.89 | · | · |
| O=C(c1cccc([N+](=O)[O-])c1)N(c1ccccn1)c1ccccn1 | -6 | 103 | -0.2 | i | 1.1 | · | · |
| CCN1/C(=C\c2ccc3ccccc3[n+]2CC)Sc2cc(C)ccc21 | -5 | 109 | · | · | · | i | 15 |
| Cc1ccc(C(O)Cn2cc([N+](=O)[O-])nc2C)cc1 (stereo not given) | · | 102 | · | i | 1 | · | · |
| COc1ccc(-c2ocnc2C(=O)N2CCN(C(c3ccccc3)c3ccccc3)CC2)cc1 | 5 | 103 | · | i | 0.84 | 14 | 117 |
| Cc1cccc2cc3c(NC(=O)C(C)C)nn(C)c3nc12 | 5 | 85 | 1.1 | i | 0.88 | · | · |
| COC(=O)Cc1cc(=O)n2[nH]c(C)c(-c3ccccc3)c2n1 | -11 | 117 | -3.3 | i | 1 | 46 | 106 |
| CCCCNC(=O)CSc1nc2cc3c(cc2c(=O)n1CCCC(=O)NCCc1ccc(OC)c(OC)c1)OCO3 | -7 | 100 | · | i | 0.82 | -64 | 122 |
| Cc1[nH]n2c(=O)cc(C(C)(C)C)nc2c1-c1ccccc1 | 4 | 103 | -1.8 | i | 0.97 | 13 | 44 |
| O=C(Cn1cnc([N+](=O)[O-])n1)N/N=C/c1cccc2ccccc12 | -7 | 112 | -1.3 | i | 1 | · | · |
| CC1CCCC(NC(=O)COC(=O)c2ccccc2Sc2ccccc2C#N)C1C (stereo not given) | -4 | 106 | 0.1 | i | 0.81 | -47 | 111 |

Of the compounds above, these contain sulfur.
| canonical_smiles | PKD1 kinase inh | RGS16-Gao HTS | GALR2 ag | HSV replic up | HSV replic up primary fold | INS promoter inh | INS promoter inh cell count |
| --- | --- | --- | --- | --- | --- | --- | --- |
| Cc1nn(-c2ccccc2)c(C)c1/C=C1\C(=O)N(C)C(=S)N1C | -7 | 102 | · | i | 0.87 | 8 | 143 |
| COc1ccc(N2CCN(C(=O)CN3C(=O)c4ccccc4S3(=O)=O)CC2)cc1 | 2 | 105 | -2.8 | i | 0.99 | 0 | 183 |
| CC(CNS(=O)(=O)c1ccc(Br)cc1)CN(C)C (stereo not given) | · | 104 | · | i | 0.77 | · | · |
| CCOC(=O)c1c(CSc2ccccc2)oc2cc(Br)c(O)c(CN(C)C)c12 | · | 99 | · | i | 0.86 | · | · |
| COc1cccc(-c2nc(=S)c3c(n2CCCO)CCCC3)c1 | -7 | 103 | 1.2 | i | 0.98 | 13 | 65 |
| O=C(CCn1c(=S)oc2ccccc21)Nc1cccc(O)c1 | -8 | 12* | · | i | 1.1 | · | · |
| COC(=O)c1sccc1NC(=S)N1CCN(c2ccc(F)cc2)CC1 | -4 | 104 | -1.9 | i | 1 | -93 | 115 |
| COc1cc(/C=N/N=C2/NC(=O)C(c3ccccc3)S2)ccc1O (stereo not given) | 4 | 111 | -1.3 | · | · | 14 | 76 |
| COc1c(N2CCN(C(=S)Nc3ccccc3)C(C)C2)c(F)cc2c(=O)c(C(=O)O)cn(C3CC3)c12 (stereo not given) | 9 | 100 | -0.9 | i | 0.96 | -7 | 105 |
| COc1ccc2[nH]c(=O)c(CN(CC3CCCO3)C(=S)Nc3ccc(C)cc3)cc2c1 (stereo not given) | -4 | 104 | · | i | 0.77 | 4 | 79 |
| Fc1cccc(F)c1-n1c(CN2CCOCC2)csc1=S | -6 | 108 | · | i | 1 | -27 | 147 |
| CC1CCN(S(=O)(=O)c2ccc3c(c2)oc(=O)n3CC(=O)N2c3ccccc3CC2C)CC1 (stereo not given) | 13 | 144 | -3.2 | · | · | · | · |
| CSCC(C)N1CCC(CO)(CCc2ccccc2)CC1 (stereo not given) | -11 | 104 | · | i | 1.1 | · | · |
| COc1ccc(OCCSc2nnc(C(C)NC(=O)c3ccccc3F)n2C)cc1 (stereo not given) | 2 | 101 | · | i | 1 | · | · |
| COCCCn1c(Cc2csc(Nc3cccc(Cl)c3)n2)nnc1SCC(=O)OC | 2 | 107 | -0.3 | i | 0.98 | 15 | 94 |
| COCCNC(=O)COC(=O)c1nsc(Cl)c1Cl | 3 | 99 | -1.8 | i | 0.97 | -14 | 132 |
| CCOC(=O)c1ccc(S(=O)(=O)NNC(=O)c2cccc(N(C)C)c2)cc1 | -5 | 96 | · | i | 0.89 | · | · |
| CCN1/C(=C\c2ccc3ccccc3[n+]2CC)Sc2cc(C)ccc21 | -5 | 109 | · | · | · | i | 15 |
| CCCCNC(=O)CSc1nc2cc3c(cc2c(=O)n1CCCC(=O)NCCc1ccc(OC)c(OC)c1)OCO3 | -7 | 100 | · | i | 0.82 | -64 | 122 |
| CC1CCCC(NC(=O)COC(=O)c2ccccc2Sc2ccccc2C#N)C1C (stereo not given) | -4 | 106 | 0.1 | i | 0.81 | -47 | 111 |
